HSD17B inhib = HSD17B dehydrogenase inhibition | Q99714 | recombinant HSD17B10, NADH fluorescence kinetic; many of its hits are not listed in these tables | Potency, µM (titrated, usually from 57.1 µM), inactives show top-dose activity change, negative = inhibition, usual class: inhibitors | 7.6% of 75,000 active | AID 893; active means well fitted inhibition curve with a large enough effect; inconclusive means small, poorly fitted or top-dose-only effect; inactive means no such curve, though single readings can be large or run the other way;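 further: the protocol describes HADH2 (HSD17B10) and not the HSD17B4 of the title; nearly all actives have a fitted effect of over 70% in size; most hits overshoot -100% by far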
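20 nM HADH2, pH 9.0 Tris/Tween; cpd preinc 15 min RT; start w/ 1 mM NAD+ + 90 uM b-hydroxybutyryl-CoA; kinetic fluor ex360/em450 q30s x 4 min; delta last-first.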
Starred values were filed as active, the others as inactive; ? = inconclusive; & = joins results of further samples; [ ] = dose if it differs, or a comment. On the % scale 0 is the no-effect control and ±100 the full control effect; potency means the concentration at half of the fitted maximal effect.

SMILES	HSD17B inhib
Cc1ccc(-[n+]2cc(=O)o[nH]2)cc1	-7%[11.4 µM]
CCN(CC)CCNc1nc2c(c(=O)n(C)c(=O)n2C)n1C/C=C(/C)Cl	3%
CCOC(=O)c1ccc(N2C(=O)CC(N3CCN(C(=O)c4ccco4)CC3)C2=O)cc1 (stereo not drawn)	-8%
Cc1ccc(-c2nnc(SCC(=O)N3CCCC3)o2)cc1	-6%
COc1ccccc1CNC(=O)CCC(=O)Nc1nnc(C)s1	-2%
O=S(=O)(Nc1ccccc1F)c1ccc2nsnc2c1	-6%
COc1ncc2nc(-c3ccc(F)cc3)c(=O)n(CCC#N)c2n1	25µM*
Cc1ccccc1C(=O)NC1CCN(Cc2nnnn2Cc2ccccc2)CC1	0%
O=C(NCC(c1cccnc1)N1CCN(c2ccc(F)cc2)CC1)C1CCCCC1 (stereo not drawn)	-1%
O=C(Cn1c(=O)c2c(ncn2Cc2ccccc2)n(Cc2ccccc2)c1=O)N1CCCC1	2%
CC(=O)/C(CN1CCCCC1)=N\O	4%
O=C(NC1CCCCC1)c1ccc(CS(=O)(=O)Cc2ccccc2F)o1	4%
CCCN1CCN(C(=O)CCCn2c(C)c3cnn(-c4ccccc4)c(=O)c3c2C)CC1	6%
CC(=O)CSCc1ccccn1	-15%[11.4 µM]
CC(=O)NCCc1cc2ccc(C)cc2[nH]c1=O	?
Cc1occc1C(=O)Nc1ccccc1C(=O)O	-2%
CCC(CC)C(=O)Nc1cccc(C(=O)N2CCCC2)c1	9%
Cc1ccc2nsnc2c1S(=O)(=O)N(CCO)Cc1cc2cc3c(cc2[nH]c1=O)OCCO3	-13%
Cn1c(-c2cc(Br)ccc2O)n[nH]c1=S	-3%
CCOc1ccc(/C(O)=C2/C(=O)C(=O)N(CC3CCCO3)C2c2ccc(C)o2)cc1 (stereo not drawn)	-24%
COc1cc(C(=O)N(Cc2ccc(N(C)C)cc2)C2CCS(=O)(=O)C2)cc(OC)c1OC (stereo not drawn)	-1%
CCCCn1c(=O)n(CC(=O)NCc2ccc(C)cc2)c(=O)c2c1nc(CO)n2CCC	4%
Cc1cc(=O)n2nc(N3CCCC(C(=O)NCc4ccc5c(c4)OCO5)C3)sc2n1 (stereo not drawn)	9%
COC(=O)c1ccc(Cl)c(NS(=O)(=O)c2ccc3c(c2)OCCO3)c1	-30%
CN(C)c1ccc(C(=O)c2ccc(N(C)C)c(N)c2)cc1N	-7%

New compounds follow
SMILES	HSD17B inhib
Brc1cc2c(cc1COc1ccc(-c3nn[nH]n3)cc1)OCO2	8%
CC1CCCN(S(=O)(=O)c2ccc(Br)s2)C1 (stereo not drawn)	-12%
c1ccc(SCCOCCn2cncn2)cc1	-5%
CCOC(=O)N1CCN(c2c(N3CCN(c4ccccn4)CC3)c(=O)c2=O)CC1	0%
CN(C)S(=O)(=O)c1ccc(C(=O)Nc2ccc(CCC(=O)N3CCCC3)cc2)cc1	2%
COc1ccc(F)cc1S(=O)(=O)Nc1ccc2c(c1)OCCO2	0%
CN1CCN(c2ncncc2-c2ccoc2)CC1	-23%
COC(=O)c1[nH]c2ccc(Cl)cc2c1NC(=O)CCN1CCN(C2CCCCC2)CC1	?
CCn1c(=O)cc(SCC(=O)N2CCN(Cc3ccc4c(c3)OCO4)CC2)c2ccccc21	-13%
CCCCOc1ccc(C(=O)O)cc1	9%
C[C@@H](COc1ccc(/C=C\c2ccccc2)cc1)[N+](C)(C)C	11%
O=C(COC(=O)C1COc2ccccc2O1)Nc1ccc2c(c1)CCC2 (stereo not drawn)	3%
O=C(O)CSc1ccc2ccccc2n1	-3%
O=C(c1ccco1)N1CCC2(CC1)CCN(c1ccc(-c3ccccc3)cc1)CC2	3%
O=C(CCCNS(=O)(=O)c1cccc2nsnc12)NCc1ccc(F)cc1	1%
COC(=O)[C@@H]1C2CCC(C(=O)Nc3ccccc3)(CC2)[C@@H]1C(=O)OC	-1%
O=C(O)c1nccnc1C(=O)Nc1ccc(Br)cn1	8%
CCCCn1c(CN2CCN(CCO)CC2)nc2ccccc21	15%
O=C(CSc1ncn[nH]1)c1ccc2c(c1)OCO2	-12%
CCCSc1nc2c(c(=O)n1-c1ccc(OCC)cc1)SCC2	6%
CCOC(=O)C(C(=O)OCC)c1cc(Br)c2noc3c2c1C(=O)c1ccccc1-3	?
CC1=NC(C(F)(F)F)(C(F)(F)F)C(C#N)=C(C)N1	10%
CCOc1ccccc1Nc1ncnc2c1cnn2-c1ccccc1	10%
CC1=C(C(=O)OC(C)(C)C)C(c2ccco2)C(C#N)=C(N)O1 (stereo not drawn)	7%
O=C(NCC1CCCO1)c1c(O)c2cccc3c2n(c1=O)CCC3 (stereo not drawn)	-15%

Continued.
SMILES	HSD17B inhib
COc1ccc(CNc2ccnc(-c3ccccc3CN(C)C)n2)c(OC)c1	22%
Cc1ccc(CNC(=O)C2CCCN(S(=O)(=O)c3cnc[nH]3)C2)cc1 (stereo not drawn)	9%
Cc1ccc(-c2sc(C)nc2CC(=O)O)cc1	0%
COC(=O)Cc1ccc(NC(=O)c2cccs2)cc1	-1%
COc1ccc(NC(=O)c2cnc(C)cn2)c2ncccc12	-10%
CCOC(=O)c1cc(C(C)=O)c(=O)n(C)c1N	?
O=c1nc2n(c3ccccc13)Cc1ccccc1-2	32µM*
CC(=O)OC1CCC2(C)C3CCC4(C)C(CC5CCCCC54C(C)=O)C3CC(=O)[C@@]2(O)C1 (stereo partly drawn)	5%
O=C(Nc1nccs1)c1ccc(CSc2nnnn2-c2ccccc2)cc1	?
O=c1oc2ccccc2cc1NCc1ccccc1O	-16%
Cc1cccc(-c2nc(CN3CCCC(C(=O)NC4CCCCC4)C3)c(C)o2)c1 (stereo not drawn)	4%
CSC1=N/C(=C\c2ccc(C)o2)C(=O)S1	-11%
Cc1ccc(N2CC(c3nc4ccccc4[nH]3)CC2=O)c(C)c1 (stereo not drawn)	11%
CS(=O)(=O)Nc1cccc(-c2ccc3ncnc(NCCN4CCOCC4)c3c2)c1	10%
Cc1cc(=S)cc(C)n1CCCO	-8%
COc1ccccc1NC(=O)CSc1ccc2nnc(-c3cccnc3)n2n1	5%
COc1ccccc1CCn1c(=O)c(-c2cccc(Cl)c2)nc2cncnc21	14%
CCC(CC)C(=O)Nc1ccccc1NC(C)=O	8%
O=C(Cc1ccc(Br)cc1)N1CCCCCC1	4%
CC(=O)N1CCc2cc(S(=O)(=O)NCCC3=CCCCC3)ccc21	-5%
O=c1[nH]nc(CSCc2ccccc2Cl)[nH]1	7%
c1ccc(-c2nnc(CN3CCC4(CC3)OCCO4)o2)cc1	3%
Cc1cc(C)nc(N2CCC(C(=O)Nc3ccc4c(c3)OCO4)CC2)n1	-21%
O=S(=O)(Cc1nc2ccccc2s1)c1ccccc1	-10%
Cc1cc(C(=O)CN2C(=O)NC3(CCCc4ccccc43)C2=O)c(C)n1Cc1cccs1 (stereo not drawn)	0%

(cont.)
SMILES	HSD17B inhib
COc1ccc(C(=O)Nc2nnc(Cc3cccs3)s2)cc1OC	-5%
CC1(C)[C@@H]2CC[C@]1(CC(=O)O)[C@H](Cl)C2	1%[11.4 µM]
Cc1ccc(F)c(NC(=O)C2CCCCC2C(=O)O)c1 (stereo not drawn)	4%
CC(CN(C)C)NC(=O)c1ccc(Cc2nc3ccccc3[nH]2)cc1 (stereo not drawn)	-5%
CC(OC(=O)CN(C)S(=O)(=O)c1ccc(Cl)cc1)C(=O)Nc1ccc(N2CCOCC2)cc1 (stereo not drawn)	3%
O=C(NC1CCCCC1)N1CCCCCCC1	1%
CCCC(=O)NC(Nc1ccc(S(=O)(=O)Nc2cc(C)on2)cc1)(C(=O)OCC)C(F)(F)F (stereo not drawn)	0%
Cc1cc(C(=O)NCC2CCCO2)n(-c2ccccc2)n1 (stereo not drawn)	4%
C[C@@H](c1ccccc1)N1C(=O)[C@H]2[C@@H]3[C@H](O)[C@H](O)CC(=O)[C@H]3CC[C@H]2C1=O	2%&2%[11.4 µM]
CC1CCc2c(C(=O)N3CCN(S(=O)(=O)c4cccs4)CC3)csc2C1 (stereo not drawn)	1%
O=C(CSc1nnc(-c2cccnc2)n1Cc1ccco1)c1ccc(Br)cc1	-8%
CCN(CC)S(=O)(=O)c1cccc(-c2nnc(SCc3ncc(-c4ccccc4)o3)n2C)c1	-6%
COc1ccccc1NC(=O)CN1C(=O)NC(CC(C)C)C1=O (stereo not drawn)	10%
COC(=O)N1[C@H](C)C=C[C@]1(Cc1ccccc1)C(=O)O	-24%
COc1cc(NC(=O)c2nnn(Cc3ccc(SC)cc3)c2N)cc(OC)c1	-7%
O=C(CSc1nc(Nc2ccccc2)nc(N2CCOCC2)n1)N1CCc2ccccc21	22%
Cc1cccn2cc(CCNC(=O)c3ccc(Br)o3)nc12	17%
COC(=O)c1ccc(NC(=O)CSc2n[nH]c(-c3ccncc3)n2)cc1	12%
CCCCNS(=O)(=O)c1ccc2nc(SCC(=O)Nc3sccc3C#N)[nH]c2c1	-27%
COc1ccc(-c2nn(C)c(=O)c3ccccc23)cc1CNC(=O)CN1CCOCC1	?
COc1ccc(N(C(=O)C(C)C)S(=O)(=O)c2ccc3c(c2)n(C)c(=O)n3C)cc1	-4%
Cn1c(NC(=O)c2ccc3c(c2)OCO3)cc(=O)n(C)c1=O	-13%
COC1(OC)N=C(N)C2(C#N)C(c3cccc(Oc4ccccc4)c3)C12C#N (stereo not drawn)	-6%
CCOc1ccc(C(=O)NC2CCN(C(=O)NCc3ccccc3)CC2)cc1	4%
Cc1onc(-c2ccccc2)c1C(=O)Nc1ccc(S(=O)(=O)N2CCCCC2)cc1	-6%

New compounds follow:
SMILES	HSD17B inhib
Cc1noc(C)c1C(=O)N1CCC[C@@]2(CCN(C(c3ccccc3)c3ccccc3)C2)C1	-7%
COc1ccc(-n2c3c(cc(C(=O)NC4CCSC4=O)c2=O)C(=O)CC(C)(C)C3)cc1 (stereo not drawn)	?
COC(=O)c1ccc(NC2(C#N)C(=O)Nc3ccccc32)cc1 (stereo not drawn)	-3%
O=C(C1CCN(S(=O)(=O)c2cccc3cccnc23)CC1)N1CCN(C2CCCCC2)CC1	4%
COc1ccc(S(=O)(=O)Nc2ccccc2C(=O)NCc2ccco2)cc1	32µM*
OCC(C#CCN1CCCCC1)NCc1ccccc1 (stereo not drawn)	-4%
O=c1cc(Nc2ccc3c(c2)OCO3)[nH]c(=O)n1-c1ccc(Br)cc1	-9%
COc1ccc2[nH]c(C(=O)O)c(NS(=O)(=O)c3ccc(Cl)s3)c2c1	-14%
CC(C)OC(=O)C1C2C=CC3(CN(CC4CCCO4)C(=O)C13)O2 (stereo not drawn)	8%
Nc1nc(SCc2ccc(Cl)cc2)ns1	-12%
CC(C)[C@H](NC(=O)NC1CCCc2ccccc21)C(=O)O (stereo partly drawn)	8%
Cn1c(=O)c(CCc2ccccc2)nc2cnc(Nc3ccccc3)nc21	41%[activator]
CC(=O)N(Cc1cccs1)C1CCOC(C)(C)C1 (stereo not drawn)	-3%
COc1ccccc1N1CCN(C(=O)Cn2nc(C(F)(F)F)c3c2CCC3)CC1	5%
COc1ccc(OC)c(Nc2ncnc3c2cnn3-c2cccc(C)c2)c1	-11%
CCc1nc(SCC(=O)N2CCN(C(=O)c3ccco3)CC2)c2c3c(sc2n1)CCCC3	9%
Cc1ccc(OC[C@H](O)[C@H](C)NC(C)C)c2c1CCC2	1%&4%
CCc1nnc(SCc2ccc(OC(C)C)cc2)n1N	-1%
COCCNC(=O)[C@H](C)/C=C(\c1cccnc1)C(NC(=O)OCc1ccccc1)c1ccc(C(=O)OC)cc1 (stereo partly drawn)	-5%
Cc1cc(C(=O)Nc2nnc(C3CCCCC3)s2)no1	1%
C[C@@]12C=CC(=O)C=C1CC[C@@H]1C2=CC[C@]2(C)[C@@H]1CC[C@H]2C(=O)CN1CCN(c2cc(N3CCCC3)nc(N3CCCC3)n2)CC1	-7%
CCOC(=O)C(C)Oc1ccc(=O)n(-c2ccccc2)n1 (stereo not drawn)	-3%
COc1ccc(CCNC(=O)CCn2cccc2)cc1OC	3%
O=C(Nc1cccc(NS(=O)(=O)c2ccc(S(=O)(=O)NC3CC3)cc2)c1)c1ccccn1	2%
Cc1cc(NC(=O)CSc2ccc3nnc(-c4cccc(F)c4)n3n2)no1	32µM*

By substructure: those above containing a cyano group (6)
SMILES	HSD17B inhib
COc1ncc2nc(-c3ccc(F)cc3)c(=O)n(CCC#N)c2n1	25µM*
CC1=NC(C(F)(F)F)(C(F)(F)F)C(C#N)=C(C)N1	10%
CC1=C(C(=O)OC(C)(C)C)C(c2ccco2)C(C#N)=C(N)O1 (stereo not drawn)	7%
CCCCNS(=O)(=O)c1ccc2nc(SCC(=O)Nc3sccc3C#N)[nH]c2c1	-27%
COC1(OC)N=C(N)C2(C#N)C(c3cccc(Oc4ccccc4)c3)C12C#N (stereo not drawn)	-6%
COC(=O)c1ccc(NC2(C#N)C(=O)Nc3ccccc32)cc1 (stereo not drawn)	-3%

Back to the main list with the 2 entries that preceded the break.
SMILES	HSD17B inhib
O=C(Nc1cccc(NS(=O)(=O)c2ccc(S(=O)(=O)NC3CC3)cc2)c1)c1ccccn1	2%
Cc1cc(NC(=O)CSc2ccc3nnc(-c4cccc(F)c4)n3n2)no1	32µM*
COc1ccccc1C1/C(=C(\O)c2c(C)nc3c(C)cccn23)C(=O)C(=O)N1CCCN(C)C (stereo not drawn)	5%
CCn1nnnc1SCC(=O)c1ccc(NC(C)=O)cc1	-10%
CCN(C(=O)c1c(OC)cccc1OC)c1nnc(-c2cccnc2)s1	6%
O=C1C(SCCO)=C(SCCO)C(=O)c2ccccc21	13µM*
CCCCn1c(=N)n(CC(O)COc2ccccc2)c2ccccc21 (stereo not drawn)	3%
COc1cccc(-c2nnc3n2N=C(C(C)(C)C)CS3)c1	-1%
O=C(Nn1cnnc1)C1Cc2ccccc2CN1S(=O)(=O)c1ccc(F)cc1 (stereo not drawn)	11%
CCOC(=O)N1CCC(N(CCCOC)C(=O)Nc2cccc(OC)c2)CC1	7%

Screening results: PubChem, National Center for Advancing Translational Sciences (NCATS)

The list is partial (hit frequency here may not be typical).
